# gsp antagonist – gsp mutant antagonism. gsp-mutant cells, cAMP HTRF, 30 min; control for the full effect not named in the record. Potency, µM (series often up to 76.9 µM), for inactives: top-dose activity change, negative = inhibition, actives largely listed as inhibitors. hit rate 0.4% among 340,000; active = falling curve of any shape with a large fitted effect; inconclusive = falling curve, mostly with a smaller effect; inactive = flat or rising curve; cell line not stated here;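 also: intracellular cAMP measured with PDE inhibitor Ro 20-1724 present during compound exposure; potency is read from the fitted curve at half-maximal effect; % is scaled to controls: 0 for no effect and ±100 for the full control effect; nearly all actives have a fitted effect of over 65% in size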
#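 Cells in G418 medium, seeded 16-24 h, 37C; buffer exchange to DPBS + 1 mM CaCl2, 0.5 mM MgCl2, 0.05% BSA; cpds in DMSO + […] (300 uM stock), 30 min 37C; HTRF cAMP detection.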
# D2 agonist – human D2 receptor agonism in beta-arrestin assay; activation, % (no concentration beside the values); AID 624465; hit rate 0.084% among 360,000; P14416; DiscoveRx PathHunter D2 beta-arrestin, luminescence, 90 min; 100% = 57 uM dopamine signal; in the data active = activation above about 40%; inconclusive = about 15% to 40%; inactive = below about 15%; also: compound concentration not given in the record; the text of the record calls up to 30% inactive
# Target sequence (P14416 whole entry, looked up): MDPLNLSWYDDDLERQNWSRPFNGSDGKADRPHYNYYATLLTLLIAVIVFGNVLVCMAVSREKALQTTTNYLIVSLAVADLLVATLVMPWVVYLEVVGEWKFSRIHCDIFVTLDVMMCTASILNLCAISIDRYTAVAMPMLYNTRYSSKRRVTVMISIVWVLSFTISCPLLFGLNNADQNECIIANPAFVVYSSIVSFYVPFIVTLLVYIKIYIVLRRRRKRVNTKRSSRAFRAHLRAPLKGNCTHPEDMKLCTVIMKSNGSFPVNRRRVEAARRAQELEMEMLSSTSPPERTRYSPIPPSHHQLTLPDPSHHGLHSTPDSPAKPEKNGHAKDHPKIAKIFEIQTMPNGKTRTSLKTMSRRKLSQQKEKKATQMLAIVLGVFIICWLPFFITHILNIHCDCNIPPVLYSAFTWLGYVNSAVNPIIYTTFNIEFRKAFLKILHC
#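 Agonist mode: compounds alone added to overnight-plated D2 PathHunter cells for 90 min at 37 C, with 57 uM final dopamine (EC100) defining full response. Beta-arrestin recruitment detected by chemiluminescent reagent, read after 1 h at ambient temperature.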
# gsp ag – activates gsp, the McCune-Albright syndrome mutation. gsp mutant cells, cAMP HTRF, 30 min; control for the full effect not named in the record. Potency, µM (top dose mostly 76.9 µM), inactives show top-dose activation (cAMP increase), most hits filed as activators. hit rate 0.13% among 340,000; active = well fitted activation curve with a large enough effect; inconclusive = small, poorly fitted or top-dose-only effect, or another doubt; inactive = no such curve, though single readings can be large or run the other way; cell line not stated here;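 also: phosphodiesterase inhibitor Ro 20-1724 added with compounds to block cAMP breakdown; potency is read from the fitted curve at half-maximal effect; nearly all actives have a fitted effect of over 60% in size; about a fifth of the inactives were tested at one dose only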
#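 Cells in DMEM/10% FBS with G418 were pretreated with compounds in DMSO plus […] (300 uM stock) for 30 min at 37C. cAMP was measured by HTRF (cAMP-d2 plus anti-cAMP antibody-K) after 30 min at room temperature.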
# D2 PAM – human D2 receptor positive allosteric modulation; hit rate 0.23% among 360,000; potentiation, % (test concentration not listed); DiscoveRx D2 beta-arrestin cells, luminescence, 90 min; 100% = 57 uM dopamine signal; active = potentiation of 50% or more; inconclusive = 30% to 50%; inactive = 30% or less;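 also: compound concentration not given in the record; tested on top of an EC20 dose of dopamine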
#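 D2 cells co-treated with compound plus 50 nM dopamine (EC20) for 90 min at 37 deg C to detect potentiation. Beta-arrestin recruitment was read as enzyme-fragment luminescence after 1 h at ambient temperature. Full response was set by 57 uM dopamine.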
# Six1-Eya2 blk – Six1/Eya2 interaction inhibition | Q15475+O00167 | AlphaScreen GST-Six1/His-Eya2 binding, biochemical; active compounds read low; control for the full effect not named in the record | activity change, % (no concentration beside the values) | hit rate 0.56% among 360,000; in the data active = activity change below about -65%; inconclusive = about -30% to -65%; inactive = above about -30%; also: % is scaled to controls: 0 for no effect and ±100 for the full control effect
#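 Six1/Eya2 binding was read as AlphaScreen signal after compounds were pinned into GST-Six1 plus His-tagged Eya2 (5X stock 250/500 nM) in pH 8.0 Tris/NaCl/TCEP buffer, beads added, then incubated 1 h, 37 C, dark.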
# CtBP-E1A inh – inhibitors of CtBP/E1A interaction; AlphaScreen GST-E1A/His-CtBP binding, 1536-well; active compounds read low; control for the full effect not named in the record; activity change, % (concentration not given with the values); hit rate 0.49% among 340,000; AID 651724; in the data active means activity change below about -65%; inconclusive means about -30% to -65%; inactive means above about -30%; also: % is scaled to controls: 0 for no effect and ±100 for the full control effect
#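 Protein mix (5X: 125 nM each GST-E1A, His-CtBP) was incubated with pinned compound 2 h at 37 deg C in dark, in 50 mM Tris pH 8.0 buffer with 300 mM NaCl. Glutathione donor and nickel acceptor beads followed; AlphaScreen signal read after 1 h.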
# Active calls of the source: *; u = inconclusive; x = not tested or not shown; [ ] = dose if it differs, or a comment.
(1) CC(=O)N1CCOc2ccc(S(=O)(=O)NCCc3ccccc3)cc21
(2) C=CCn1c(C)cc(C(=O)CSc2nc3ccccc3c(=O)[nH]2)c1C
(3) CC(C)(C)c1ccc(OCC(=O)O)cc1
(4) COc1ccc(CCNC(=O)C2CC(=O)N(C3CCCC3)C2)cc1OC (centres undefined)
(5) Cc1ccc2nc(N3CCN(c4ccccc4)CC3)c(C=O)c(=O)n2c1
(6) COc1ccc(S(=O)(=O)N2CCC(Nc3ccccc3Cl)CC2)cc1
(7) COc1ccc(NC(=O)c2nc3nccc(C)n3n2)cc1S(=O)(=O)N1CCOCC1
(8) Cc1ccc(COCCN2CCN(S(=O)(=O)c3ccc(C)cc3)CCC2=O)cc1
(9) Cc1cc(F)c(F)c(C(=O)N2CCOCC2)c1
(10) O=c1oc2ccccc2c(N2CCCC2)c1CN1CCCC1

screen / no.	1	2	3	4	5	6	7	8	9	10
gsp antagonist	1.0%	u	4.3%	-3.4%	-1.1%	-14.4%	-7.0%	-9.4%	21.9%	6.3%
D2 agonist	-4.6	0.2	-2.2	-4.0	5.6	-1.3	-3.1	-3.1	-1.6	-4.3
gsp ag	9.3%	-29.0%	33.0%	u	20.2%	-40.8%[inhibitor]	u	-3.3%	-15.3%	9.7%
D2 PAM	-14.0	-3.2	-7.3	-0.5	-3.3	-11.5	25.0	-7.9	4.4	-11.2
Six1-Eya2 blk	-4.3	-28.3	2.5	-3.1	-6.3	-0.9	-14.8	5.6	5.8	-0.1
CtBP-E1A inh	-16.7	-12.8	5.2	3.7	3.2	10.5	-11.2	x	4.7	5.1

(11) O=C(c1cccs1)N1C[C@H](n2cc(C3CC3)nn2)[C@@H](O)C[C@@H]1c1ccc(Cl)cc1
(12) CCOC(=O)c1sc(NC(=O)CC2OC(=O)c3ccccc32)nc1C (centres undefined)
(13) O=C(/C=C/Sc1ccc(C(F)(F)F)cn1)c1ccccc1
(14) CCN(CC(=O)Nc1cccc(OC)c1)CC(=O)Nc1cccc2ccccc12
(15) O=C(CSc1ccc(-c2cccs2)nn1)NCCc1ccccc1
(16) CCc1nc2c(OCc3cccc(Cl)c3)cccn2c1N(C)C(=O)c1ccco1
(17) Cc1cc(C)cc(-n2nc(C)cc2N)c1
(18) Oc1ccc(C=Nc2ccccc2-c2nc3ccccc3[nH]2)cc1
(19) CCCOC(=O)CN1C(=O)c2ccc(C(=O)OCCC)cc2C1=O
(20) Cc1cc(-c2c(C)[nH]n(-c3ccccc3)c2=O)n[nH]1

screen / no.	11	12	13	14	15	16	17	18	19	20
gsp antagonist	x	6.4%	-2.9%	-27.3%	-4.6%	x	6.5%	-0.3%	u	-8.1%
D2 agonist	-2.0	1.7	-4.9	-6.4	-0.3	-1.3	0.0	-2.8	-0.4	-4.7
gsp ag	-97.7%[inhibitor]	-24.3%	0.4%	u	11.3%[15.4 µM]	x	10.7%	u	-37.7%[inhibitor]	4.5%
D2 PAM	1.5	-23.0	-21.0	-27.4	-4.4	1.6	-8.0	-5.8	3.0	-7.8
Six1-Eya2 blk	8.8	-6.7	5.6	-6.1	-16.8	-5.9	-1.3	0.8	-0.4	-29.4
CtBP-E1A inh	-4.2	-4.3	x	0.9	0.0	-0.3	-7.4	6.9	8.2	-29.8

(21) CC(C)NC(=O)C1(O)c2ccccc2NC(=O)N1c1ccc(Cl)c(Cl)c1 (centres undefined)
(22) COc1ccccc1NC(=O)N(Cc1ccco1)Cc1cc2cccc(C)c2[nH]c1=O
(23) C/C(=N\Nc1ccccn1)c1ccc(N2CCOCC2)cc1
(24) CCC(C)Sc1ccc([C@H]2N[C@@](Cc3ccccc3)(C(=O)OC)[C@H]3C(=O)N(C)C(=O)[C@@H]23)cc1 (some centres undefined)
(25) Cc1ccccc1OCC(=O)N1CCN(C(=O)COc2ccccc2C)CC1
(26) O=C(CN1C(=O)NC2(CCCC2)C1=O)OCCOc1cccc(Cl)c1
(27) c1cnc(SCCOc2ccc3c(c2)CCC3)nc1
(28) OC(c1ccc(Cl)cc1)c1ncc(-c2ccc(Cl)cc2)[nH]1 (centres undefined)
(29) Cc1[nH]c2ccccc2c1C(=O)C(=O)NCc1cccs1
(30) CC1(C(=O)NS(=O)(=O)c2ccc(Cl)cc2)CCN1C(=O)C1(c2ccccc2)CCCC1 (centres undefined)

screen / no.	21	22	23	24	25	26	27	28	29	30
gsp antagonist	11.3%	-14.5%	-6.1%	-16.6%	1.1%	-1.0%	u	x	-2.0%	x
D2 agonist	0.1	-2.4	4.9	0.9	1.2	-3.7	-2.8	1.9	-1.8	2.0
gsp ag	-15.8%	0.2%	u	x	-0.8%	12.7%[15.4 µM]	-44.9%	x	-8.8%[15.4 µM]	x
D2 PAM	8.9	-6.7	3.3	-7.9	-1.3	-28.4	-5.1	-4.4	-2.8	0.4
Six1-Eya2 blk	-0.1	-2.0	-11.5	-9.3	-2.9	-14.2	20.1	-10.4	6.8	6.9
CtBP-E1A inh	-2.7	6.1	-2.7	-2.9	3.8	13.1	27.9	-6.8	0.6	-13.8

(31) COc1ccccc1CNC(=O)c1cc(S(=O)(=O)N2CCN(c3ccccc3)CC2)ccc1Cl
(32) O=C1C(=O)N(c2ccccn2)C(c2ccc(F)cc2)/C1=C(/O)c1ccc(Br)cc1 (centres undefined)
(33) COc1cc(NC(=O)c2ccc3c(c2)S(=O)(=O)N=C2CCCCCN23)cc(OC)c1
(34) O=C1CS(=O)(=O)c2ccccc2N1
(35) CC1(C(=O)Nc2cccc(OC(F)(F)F)c2)Cc2c(-c3ccc4c(c3)OCO4)ccnc2O1 (centres undefined)
(36) Nc1ccccc1Nc1cc(-c2ccccc2)nn1-c1cccc(Cl)c1
(37) COc1cc(/C=C2\C(=O)NN(c3ccccc3)C2=O)cc([N+](=O)[O-])c1O
(38) O=C(CCCOc1ccccc1)Nc1cccnc1
(39) O=C(/C=C/CCc1ccc2c(c1)OCO2)N1CCCCC1
(40) CCOc1ccc2[nH]c(C(=O)N/N=C/c3ccccc3OC)cc2c1

screen / no.	31	32	33	34	35	36	37	38	39	40
gsp antagonist	-1.5%	3.8%	-8.6%	1.9%	x	-11.5%	-8.9%	3.3%	1.5%	9.5%
D2 agonist	-0.2	-2.4	0.9	3.0	-5.7	4.7	-5.0	-0.5	11.3	3.5
gsp ag	-6.9%	27.4%	-53.8%[inhibitor]	12.1%	x	-8.7%[15.4 µM]	-28.7%[15.4 µM]	-39.7%[inhibitor]	x	-5.2%[15.4 µM]
D2 PAM	-21.8	u	-14.8	-7.7	8.6	23.6	-9.4	-2.2	20.1	4.1
Six1-Eya2 blk	-19.7	-1.2	u	-1.7	-7.7	u	-14.0	7.2	-1.9	0.0
CtBP-E1A inh	1.8	x	-21.1	-13.4	-0.9	-21.0	-2.1	-0.9	-4.5	-17.7

(41) COc1ccc(-c2nn(-c3ccccc3)cc2/C=N/N=C(N)N)cc1OC
(42) CCOC(=O)C1=C(C)N(CCCC(=O)O)C(=O)NC1c1ccc([N+](=O)[O-])cc1 (centres undefined)
(43) O=C(Nc1c2c(nc3ccccc13)CCCC2)c1ccccc1F
(44) COc1cc(CNC(=O)c2cc(-c3cc(OC)ccc3Cl)n[nH]2)cc(OC)c1
(45) CCc1cc(C(=O)O)c(NC(=O)C(c2ccccc2)c2ccccc2)s1
(46) CC(=O)c1c(C)[nH]c(C(=O)NCc2cccs2)c1C
(47) O=C(NCc1ccccc1)C(c1ccc(F)cc1)N(C(=O)c1csnn1)C1CCCC1 (centres undefined)
(48) COc1ccc(CC(=O)Nc2c(C(=O)N3CCN(c4ccccc4OC)CC3)oc3ccccc23)cc1OC
(49) CCOc1ccc(OCC)c(NC(=O)CCS(=O)(=O)c2ccc(Br)s2)c1
(50) COc1ccc(Nc2ncnc3c2c(C)c(C)n3CCO)cc1

screen / no.	41	42	43	44	45	46	47	48	49	50
gsp antagonist	-5.6%	5.5%	-8.3%	x	u	-3.3%	x	u	-20.5%	-9.9%
D2 agonist	-4.2	-1.4	-5.4	4.3	-2.7	0.0	-3.1	-1.9	0.8	-11.1
gsp ag	18.1%	x	2.2%[15.4 µM]	x	-0.4%	9.1%	-2.6%[15.4 µM]	5.7%	-2.8%	u
D2 PAM	-28.8	-5.1	-7.7	-12.0	5.9	-15.0	-5.7	4.1	0.1	-9.2
Six1-Eya2 blk	-14.6	5.9	-11.1	-24.8	-3.2	0.8	-0.1	-12.8	-0.1	-0.5
CtBP-E1A inh	8.8	1.5	-2.2	-5.1	-2.4	-4.6	-9.4	-16.0	-8.9	1.9

# A draw from above in order of molecular weight, rising:
(42) CCOC(=O)C1=C(C)N(CCCC(=O)O)C(=O)NC1c1ccc([N+](=O)[O-])cc1 (centres undefined)
(47) O=C(NCc1ccccc1)C(c1ccc(F)cc1)N(C(=O)c1csnn1)C1CCCC1 (centres undefined)
(49) CCOc1ccc(OCC)c(NC(=O)CCS(=O)(=O)c2ccc(Br)s2)c1

screen / no.	42	47	49
gsp antagonist	5.5%	x	-20.5%
D2 agonist	-1.4	-3.1	0.8
gsp ag	x	-2.6%[15.4 µM]	-2.8%
D2 PAM	-5.1	-5.7	0.1
Six1-Eya2 blk	5.9	-0.1	-0.1
CtBP-E1A inh	1.5	-9.4	-8.9

# Other compounds follow:
(51) COc1cccc(C2c3cc4c(cc3OC(C)(N3CCCC3)C2C)OCO4)c1O (centres undefined)
(52) CCN(CC)C(=O)/C(NC(=O)c1ccccc1)=C(/Sc1ncccn1)c1ccccc1
(53) CC(C)C(=O)Nc1cccc(C(=O)Nc2nnc(C(C)C)s2)c1
(54) CCO[C@@H]1OC(C(=O)N2CCN(Cc3ccccc3)CC2)=C[C@H](c2ccc(C(F)(F)F)cc2)[C@H]1CCCO
(55) CN(C)c1ccc(NC(=O)C(=O)C2C(=O)Nc3ccccc32)cc1 (centres undefined)
(56) COc1cc(Cl)c(C)cc1NC(=O)CC1SC(N2CCOCC2)=NC1=O (centres undefined)
(57) CC(=O)C1C(=O)CC(C)(O)C(C(C)=O)C1c1ccc(N(C)C)cc1 (centres undefined)
(58) Cc1ccc(CSc2nc3sc(C)c(C)c3c(=O)n2Cc2ccco2)cc1

screen / no.	51	52	53	54	55	56	57	58
gsp antagonist	21.4%	0.0%	-5.0%	-15.0%	6.4%	-0.2%	-1.3%	3.1%
D2 agonist	-2.3	-2.9	-4.4	-1.9	-3.1	-0.4	-3.2	0.7
gsp ag	-4.8%	15.6%	u	x	-44.5%[inhibitor]	12.4%	14.8%	6.0%
D2 PAM	-13.4	-6.2	-9.7	-36.6	-7.3	-4.4	-17.0	-5.4
Six1-Eya2 blk	-22.1	3.7	-6.2	10.4	4.5	2.2	21.8	6.7
CtBP-E1A inh	7.4	8.1	-2.5	0.0	-20.0	1.3	42.2	1.8

# Compound activity: PubChem, National Center for Advancing Translational Sciences (NCATS)
